YopH inh: YopH tyrosine phosphatase inhibitors, primary screen, biochemical, fluorescence Ex485/Em525; AID 898, 2007; inhibition, %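 (about 10 µM by stock and volumes)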; YopH tyrosine phosphatase [Yersinia enterocolitica]; actives 0.16% (n = 140,000);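 active = inhibition of 50% or more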;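 note: controls were vehicle for no effect and minimum signal wells for full effect; inactives centre near -20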
RecA intein inh: Mtb RecA intein splicing inhibitors, primary screen, biochemical, fluorescence, HTS; Protein RecA (Mycobacterium tuberculosis (strain ATCC 25618 / H37Rv)), P9WHJ3; cell-free RecA intein splicing; inhibition, %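 (about 9 µM by stock and volumes)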; actives 0.75% (n = 290,000); AID 2221, 2009; in the data active = inhibition above about 30%; inconclusive = no clear call, values can overlap the other calls;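 note: 0% = vehicle wells and 100% = reference inhibitor control wells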
Target sequence (P9WHJ3 whole entry, looked up): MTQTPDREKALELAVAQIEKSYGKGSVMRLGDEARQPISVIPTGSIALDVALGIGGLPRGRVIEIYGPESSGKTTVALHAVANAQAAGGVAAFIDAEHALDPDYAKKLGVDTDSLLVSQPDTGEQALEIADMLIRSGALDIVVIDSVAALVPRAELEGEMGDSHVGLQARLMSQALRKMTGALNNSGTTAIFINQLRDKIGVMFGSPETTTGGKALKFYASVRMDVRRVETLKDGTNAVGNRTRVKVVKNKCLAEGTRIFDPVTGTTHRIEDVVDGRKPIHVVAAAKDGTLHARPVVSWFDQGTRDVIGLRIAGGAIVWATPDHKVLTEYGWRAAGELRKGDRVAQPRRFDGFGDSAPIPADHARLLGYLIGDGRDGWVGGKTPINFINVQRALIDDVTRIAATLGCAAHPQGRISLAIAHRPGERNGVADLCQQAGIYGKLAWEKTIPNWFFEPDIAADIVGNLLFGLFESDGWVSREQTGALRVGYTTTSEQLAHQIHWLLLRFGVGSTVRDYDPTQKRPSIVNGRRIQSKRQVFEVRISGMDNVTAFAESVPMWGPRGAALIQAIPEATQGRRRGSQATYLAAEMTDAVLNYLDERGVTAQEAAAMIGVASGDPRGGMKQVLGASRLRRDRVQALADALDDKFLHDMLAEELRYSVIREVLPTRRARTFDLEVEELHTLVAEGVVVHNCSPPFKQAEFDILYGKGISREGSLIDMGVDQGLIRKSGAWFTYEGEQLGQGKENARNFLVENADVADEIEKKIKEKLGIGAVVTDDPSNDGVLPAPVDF
Mtb growth: M. tuberculosis H37Rv growth inhibitors, H37Rv strain (AID 1626) | M. tuberculosis H37Rv growth inhibition; higher % means a stronger effect | inhibition, % at 10 µM, or IC50 in µM where a hit was titrated | actives 0.95% (n = 220,000);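 active = confirmed in a dose series; inconclusive = inhibition above 80% but not taken into the dose series; inactive = below 80% or under 30% at every dose of the series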;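 note: bacteria incubated seven days before Alamar blue readout; 0% = bacteria only wells and 100% = bacteria with antibiotic wells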
Mtb bLac sens: beta-lactam sensitization of Mtb H37Rv, H37Rv; M. tuberculosis H37Rv growth with meropenem, percent inhibition; hits of this screen are not shown here; AID 434955, 2010; actives 0.27% (n = 330,000); inhibition, % at 25 µM;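 active = about 74% or more and at least 40 points above the plate without the antibiotic, then above 30% in a dose series; inconclusive = first-round hits that could not be retested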;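 note: growth measured after seven days incubation then overnight dye step; 0% = bacteria only wells and 100% = bacteria with antibiotic; twin plates without the antibiotic show which effects depend on it; some results filed as inactive read as strong as hits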
Arbovirus inh: antivirals against arbovirus infection, primary screen, cell-based, full library, 10K replicate subset. arbovirus infection cell-based antiviral screen. inhibition, % at 10 µM. actives 0.37% (n = 200,000). AID 1251, 2008;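 active = inhibition from about 30%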;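 note: bluetongue infection of BSR cells; cell survival read as ATP light after 72 h; 0% = infected wells without compound and 100% = uninfected wells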
An asterisk follows results filed as active; u = inconclusive; x = no result given; & = joins results of further samples.

structure	RecA intein inh	Mtb bLac sens	YopH inh	Arbovirus inh	Mtb growth
CCn1ccnc1CN(C)C(=O)CCc1nnc(CCC2CCCCC2)o1	-14.0	1.6	x	0.6	-2.9%
Cc1ccc(OCCNC(=O)CNC(=O)c2ccc(C)cc2)cc1	0.0	3.9	x	x	x
CCOc1ccc(N(CC(=O)NCc2ccc(OC)cc2)S(=O)(=O)c2c(C)noc2C)cc1	-5.8	-8.1	-23.6	-13.7	-3.8%
CC(=O)Nc1cccc(NC(=O)c2ccc(Br)cc2)c1	-1.2	0.0	x	-1.8	-1.2%
Oc1c(N=NC(=S)Nc2ccccc2F)c2ccccc2n1Cc1ccc(Cl)cc1	0.4	23.9	x	-11.5	4.6%
CS(=O)(=O)N(Cc1ccccc1)c1ccc(C(=O)Nc2cccnc2)cc1	-0.1	0.9	-17.6	-7.7	-0.3%
CCOC(=O)Cn1nnc(-c2ccc(SC)cc2)n1	1.8	54.9	4.7	2.7	6.3%
CNCCc1c[nH]c2ccc(O)cc12	-2.1	0.7	x	x	-8.7%
C[n+]1ccccc1C1CCCC/C1=N\NC(N)=S (centres undefined)	2.2	-2.2	x	7.1	-0.4%
Cc1nn(C)cc1[C@@H]1C[C@H]2CN(Cc3cccc(Cl)c3)C(=O)[C@]23CCCN13	-1.1	-3.9	x	4.8	-10.2%
COc1ccc(Cl)c2sc(NC(=O)C3=COCCO3)nc12	-1.9	-8.0	x	x	x
CCCCNC(=S)N(Cc1ccco1)Cc1cc2cc3c(cc2[nH]c1=O)OCCO3	4.1	0.3	-13.1	-4.1	8.5%
O=C(NCCNc1ccc([N+](=O)[O-])cc1C(F)(F)F)c1ccccc1	0.6	1.5	-4.8	12.8	2.1%
Cc1cccc(Cn2c(NCCO)nc3c2c(=O)n(C)c(=O)n3C)c1	0.3	7.1	-1.1	6.9	-6.5%
Cn1c(=O)[nH]c(=O)c2c1nc(CN1CCN(Cc3ccccc3)CC1)n2CC(N)=O	-0.7	2.8	-33.5	2.6	3.1%
Cc1ccc(N2C(=O)N3[C@H](c4ccc(F)cc4)[C@@H]4C(=O)N(C5CCCCC5)C(=O)[C@@H]4[C@]3(C)C2=O)cc1	-0.2	-9.9	x	x	x
CCOc1ccc(CCNC(=O)c2nnn(CC(=O)Nc3ccc(C)cc3)c2N)cc1OCC	-9.3	-0.9	x	x	x
CCCCCCOC1(c2ccccc2)OC(=O)c2ccccc21 (centres undefined)	14.1	-8.7	-42.5	12.9	x
Cc1ccc(C(=O)COC(=O)Cc2ccccc2)cc1	-3.3	0.7	x	x	x
O=C(COC(=O)c1cnc(Cl)c(Cl)c1)NCCC1=CCCCC1	4.0	-6.4	x	5.5	2.3%
O=C(CN1CCCC1=O)NC1C2CC3CC(C2)CC1C3 (centres undefined)	-0.7	-0.9	-25.0	5.2	-0.5%
C=CCN1C(=O)c2ccc(C(=O)OCC(=O)N(C)C3CCCCC3)cc2C1=O	-2.3	4.7	x	0.9	0.7%
COCCN(C(=S)Nc1ccc(Cl)cc1OC)C1CCN(C(C)=O)CC1	0.4	-2.2	x	x	-3.3%
C=C1CCC2C(C)(C)[C@@H](O)CC[C@@]2(C)[C@@H]1COc1ccc2ccc(=O)oc2c1 (some centres undefined)	4.2	-0.3	x	x	x
NC(=O)CC(NC(=O)Cc1ccc(Br)cc1)c1ccc(N2CCc3ccccc3C2)c([N+](=O)[O-])c1 (centres undefined)	3.0	5.3	x	x	x
Cc1cc2nc(SCC(=O)O)nc(C)c2cc1C	1.8	-0.9	-9.4	4.0	-11.1%
COc1ccc(NC(=O)Cn2cccc2)c(OC)c1	0.0	4.9	-7.2	2.3	-0.9%
Cc1cc(Cl)ccc1OCC(=O)NNC(=O)c1cnccn1	x	89.1	x	-20.4	u
COC(C[C@H]1O[C@H]1[C@@H](O)COCc1ccccc1)OC	-2.1	x	x	x	-8.9%
Cc1ccc(CN2CCNC(=O)C2CC(=O)NCc2csc(C(C)C)n2)cc1 (centres undefined)	-3.8	-4.1	x	x	x

One compound at a time, as listed above. Values in the order: RecA intein inh, Mtb bLac sens, YopH inh, Arbovirus inh, Mtb growth
CS(=O)(=O)N(Cc1ccccc1)c1ccc(C(=O)Nc2cccnc2)cc1 in the list: -0.1, 0.9, -17.6, -7.7, -0.3%
CCn1ccnc1CN(C)C(=O)CCc1nnc(CCC2CCCCC2)o1 in the list: -14.0, 1.6, x, 0.6, -2.9%
CCOC(=O)Cn1nnc(-c2ccc(SC)cc2)n1 in the list: 1.8, 54.9, 4.7, 2.7, 6.3%

2 entries from above, as labelled records.
> Cc1ccc(OCCNC(=O)CNC(=O)c2ccc(C)cc2)cc1
  RecA intein inh: 0.0 | Mtb bLac sens: 3.9 | YopH inh: x | Arbovirus inh: x | Mtb growth: x
> C=C1CCC2C(C)(C)[C@@H](O)CC[C@@]2(C)[C@@H]1COc1ccc2ccc(=O)oc2c1 (some centres undefined)
  RecA intein inh: 4.2 | Mtb bLac sens: -0.3 | YopH inh: x | Arbovirus inh: x | Mtb growth: x

Further compounds follow.
structure	RecA intein inh	Mtb bLac sens	YopH inh	Arbovirus inh	Mtb growth
CCc1ccc(/C=N/NC(=O)Cc2ccc(OC)c(OC)c2)s1	-2.0	0.8	x	x	x
COc1ccc(C2c3ccc4ccccc4c3Oc3ncn(CCN4CCOCC4)c(=N)c32)cc1 (centres undefined)	10.8	97.5	-14.7	-26.8	20.1%
CCSCCC(NC1=CC(=O)CC(C)(C)C1)C(=O)O (centres undefined)	-1.1	-14.2	-18.1	-2.5	1.4%
COc1ccc(C(C)=O)cc1CSc1nc2ccccc2c(=O)n1-c1ccccc1	1.5	-0.7	-15.5	13.8	-1.6%
O=C1CC(CC(=O)N/N=C/c2ccccc2[N+](=O)[O-])=NN1	90.1*	-1.1	-19.0	0.9	0.7%
Cc1cccc(C)c1N1CCN(c2c(C)cccc2C)CC1	-1.6	2.1	x	x	x
Cn1cc(/C=C(\NC(=O)c2ccccc2Cl)C(=O)NCCCn2ccnc2)c2ccccc21	-1.2	-1.8	x	x	x
CCCOC(=O)C1[C@H]2C(=O)N(C(C)c3ccc(OC)cc3)C[C@]23C=C[C@H]1O3 (some centres undefined)	0.1	-5.3	15.8	6.2	-7.0%
COc1ccc(CNC(=O)COC(=O)CCn2c(C)csc2=O)cc1OC	-0.6	-0.5	x	x	x
NS(=O)(=O)c1ccc(Nc2nc(-c3ccc(F)cc3)cs2)cc1	2.8	80.2	x	-18.1	u
C/C(CC(=O)Nc1ccccc1C(F)(F)F)=N\NC(=O)c1cnccn1	-1.7	37.6	x	x	x
Cc1cccc(Nc2ccncc2S(=O)(=O)NC(=O)NC(C)C)c1	-2.9	0.9	x	1.6	-7.0%&5.9%
COc1cc([N+](=O)[O-])ccc1NC(=O)COC(=O)CCS(=O)(=O)c1ccc(C)cc1	-1.2	2.4	x	x	x
COc1ccccc1NC(=O)c1cc([N+](=O)[O-])ccc1NCCN1C(=O)CCC1=O	1.9	-8.3	x	-0.5	2.9%
COCCn1c(SCC(=O)NC(=O)NCc2ccccc2)nc2ccccc21	1.6	-7.5	-34.6	16.0	8.6%
CCN(CC)c1nc(SCCOC(=O)Nc2ccccc2)nc(N(CC)CC)n1	7.7	11.8	-18.3	-5.8	12.6%
Cc1ccn2cc(C(=O)Nc3ccccc3N3CCOCC3)nc2c1	-0.4	15.8	-43.1	-4.0	-1.1%
Nc1nonc1N/N=C/c1c(O)ccc2ccccc12	-6.9	0.5	x	17.1	20.7%
CCN1C(=O)S/C(=C/c2c(OCc3ccc(C(=O)O)cc3)ccc3ccccc23)C1=O	x	5.0	-43.5	0.2	8.9%
COc1cccc(-c2nn3c(-c4ccccn4)nnc3s2)c1	1.9	1.1	-33.0	-11.8	-7.8%
COc1ccc([N+](=O)[O-])cc1N(CC(=O)N(C)C)S(C)(=O)=O	1.5	-2.0	x	3.5	-4.4%
CCN1CCCc2cc(CN(CCN3CCOCC3)C(=S)Nc3ccc(OC)cc3)ccc21	-1.1	-2.0	x	-6.5	0.6%
CC(=O)c1ccc(NC(=S)NCc2ccco2)cc1	-0.9	3.3	x	11.4	-11.5%
O=C1c2ccccc2C(=O)N1CC(O)COc1ccccc1Cl (centres undefined)	-1.8	-1.3	x	x	x
CCc1ccccc1NC(=O)C1CCCC1	0.0	-6.0	x	x	x
O=[N+]([O-])c1ccc(Nc2ccccc2F)nc1	1.4	-7.8	x	-4.4	-4.3%
O=Cc1ccc(OC(=O)C2CC(=O)N(c3ccc(F)cc3)C2)cc1 (centres undefined)	4.6	5.4	-1.7	18.6	-3.8%
C/C(=C/c1ccccc1)C(=O)N1CCN(c2ccc(F)cc2)CC1	4.0	-0.3	x	x	x
CN(C)CCN(C(=O)c1ccc(Br)s1)c1nc2cc3c(cc2s1)OCCO3	1.1	0.6	x	6.4	4.8%
Clc1cccc(Cl)c1COn1nnc2ccccc21	-0.1	9.6	15.2	-9.6	4.5%
Cc1ccccc1-c1nnc(-c2cccs2)o1	-2.9	-0.1	x	-1.8	2.7%
CC(C)(C)n1ncc2c(=O)n(Cc3cccc(Cl)c3)cnc21	x	-7.0	x	-10.0	-6.3%
CCOC(=O)c1cnc2nc(Cc3ccccc3)[nH]n2c1=O	4.7	36.5	7.3	-1.2	3.1%
O=S1(=O)C=C(Sc2nnc(-c3ccccc3)o2)c2ccccc21	17.8	100.1	-34.4	-46.7	x
COc1ccc(NC2SC(=O)N(CC(=O)O)C2=O)cc1 (centres undefined)	2.8	91.9	-51.1	-8.3	52.8%
Cc1cc(NCCO)nc(-n2nc(C)cc2C)n1	0.2	71.6	-35.2	-1.9	8.2%
N#C[C@@H]1N(Cc2ccccc2)C(=O)[C@H]2CC3C=CC21O3 (some centres undefined)	0.5	5.5	x	x	x
CC(C)Cc1nc(C#N)c(N2CCC(C(N)=O)CC2)o1	-1.8	0.9	-21.9	6.5	0.2%
CC1CC1C(=O)OCC(=O)Nc1ncc(Cl)cc1Cl (centres undefined)	6.7	-15.8	x	x	x
Cc1cc(C)n(S(=O)(=O)c2ccc3ccccc3c2)n1	2.9	3.8	-23.8	-1.0	-3.6%
CC(NC(=O)c1cc(S(=O)(=O)N2CCOCC2)cn1C)c1ccccc1 (centres undefined)	0.3	-2.2	x	x	x
Cc1[nH][nH]c(=O)c1C(c1ccc(-c2cccc(C(=O)O)c2)o1)c1c(C)[nH][nH]c1=O	x	5.4	x	-4.9	-0.1%
[O-]c1n[n+](-c2ccc(Cl)cc2)cc2ccccc12	-2.7	-5.8	x	-0.3	75.0%
CCOc1ccc(N(CC(=O)Nc2cccc(C)c2)S(C)(=O)=O)cc1	-0.2	-0.4	x	x	x
O=C(Cc1nc2ccccc2[nH]1)c1ccc([N+](=O)[O-])cc1	x	2.9	x	x	2.8%
CCOc1ccc(NC(=O)COc2coc(CN3CCc4ccccc4C3)cc2=O)cc1	-0.1	-1.4	x	x	x
COc1ccc(C(=O)NNC(=O)C(=O)Nc2ccc(C)c(Cl)c2)cc1	0.4	81.9	x	5.2	u
O=C(O)c1cccc(C(=O)O)c1Br	-1.7	-3.6	x	x	x
Cc1ccc(OCC(=O)Oc2ccccc2[N+](=O)[O-])cc1	-0.5	-3.5	x	x	x
O=C(C[n+]1cccc(CNC(=O)c2ccc(OC(F)F)cc2)c1)c1ccccc1	7.7	1.8	x	-3.9	1.9%
FC(F)(F)c1cccc(NC(=S)NCc2ccc(Cl)cc2)c1	1.5	49.7	x	-14.1	u
Cc1ccc(C(=O)OCC(=O)N(C)C2CCS(=O)(=O)C2)cc1S(=O)(=O)N1CCCCC1 (centres undefined)	-0.2	-3.2	x	x	x
O=C(NS(=O)(=O)c1ccccc1)c1ccccc1F	-0.9	-6.5	-30.3	0.9	-13.8%
COc1ccc(-n2cc(-c3ccccc3)[nH]c2=S)cc1	-5.1	3.4	-10.9	-17.3	1.2%
Cc1ccc(C(=O)c2ccccc2C(=O)OCC(=O)Nc2ccc(SC(F)F)cc2)cc1	10.7	0.3	-34.8	8.1	8.6%
COc1ccccc1NS(=O)(=O)c1cc(C(=O)NCC2CCCO2)ccc1C (centres undefined)	-1.6	-3.6	x	x	x
CCc1ccc(NC(=O)C(=O)NCCN2CCN(S(=O)(=O)c3ccccc3)CC2)cc1	-0.7	-3.8	x	x	x
Cc1cc(NC(=O)Nc2ccccc2)n(-c2ccccc2)n1	7.6	-6.6	3.5	0.1	x

These rows are one share of the data; rates above refer to the full screens.
